# VDR inhibitor = inhibitors of human vitamin D receptor | AID 504847 | VDR-SRC2-3 peptide fluorescence polarization, 2 h | 400,000 tested, 0.93% active | Potency, µM, for inactives: max response, negative = inhibition, hits mostly inhibitors | P11473; active = well fitted inhibition curve with a large enough effect; inconclusive = small, poorly fitted or top-dose-only effect, or another doubt; inactive = no such curve, though single readings can be large or run the other way; note: series mostly up to about 120 µM
# Target sequence (P11473 whole entry, looked up): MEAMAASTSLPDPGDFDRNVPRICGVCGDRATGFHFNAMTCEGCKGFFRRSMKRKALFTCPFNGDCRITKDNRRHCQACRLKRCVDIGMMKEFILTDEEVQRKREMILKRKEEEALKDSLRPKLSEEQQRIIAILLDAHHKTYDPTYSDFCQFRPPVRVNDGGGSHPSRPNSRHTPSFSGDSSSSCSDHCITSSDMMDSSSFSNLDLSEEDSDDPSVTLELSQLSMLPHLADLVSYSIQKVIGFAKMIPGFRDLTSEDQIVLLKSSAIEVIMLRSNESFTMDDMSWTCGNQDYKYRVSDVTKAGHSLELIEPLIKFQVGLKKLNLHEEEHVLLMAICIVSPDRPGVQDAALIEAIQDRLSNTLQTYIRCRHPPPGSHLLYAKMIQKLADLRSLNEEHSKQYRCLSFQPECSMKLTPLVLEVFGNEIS
#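 FP read-out; VDR + SRC2-3 coactivator peptide; 23 nl compound by pintool; 2 h RT incubation; reagents held at 4 deg C, protected from light.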
# Starred values were filed as active, the others as inactive; u = inconclusive; & = joins results of further samples. % is set by controls: 0 for no effect and ±100 for the full control effect; potency is the fitted concentration of half-maximal effect.
VDR inhibitor | Structure
14% | COc1ccccc1CN(C(=O)Cc1cccs1)C(C(=O)NC1CCCC1)c1ccncc1 (centres undefined)
-2% | CNc1nc(Oc2ccc(=O)[nH]n2)nc(N2CCOCC2)n1
-2% | COc1ccc(/C=C/C(=O)Nc2ccc(C)cc2)cc1S(=O)(=O)N1CCOCC1
-2% | Cn1c(SCc2ccc([N+](=O)[O-])cc2)nc2c(c1=O)SCC2
27%&-7% | COc1ccc(CN2C(=O)c3ccccc3C2C(=O)NC2CCCCCC2)c(OC)c1 (centres undefined)
-20% | CCOC(=O)c1[nH]c(=O)[nH]c1CSCCO
1% | COc1ccc(CNC(=O)CN(C)CC(=O)Nc2ccccc2Br)cc1
11% | CN1C(=O)/C(=C2/C=CC=CN2C)OC1=S
-7% | Cc1nc2ncnn2c(C)c1Cc1c(Cl)cccc1Cl
-1% | Cc1ccc(N2CC(C(=O)NCc3ccc(C)n3C)CC2=O)cc1 (centres undefined)
3% | COc1ccc(N2CCN(CCC3Oc4cc([N+](=O)[O-])ccc4NC3=O)CC2)cc1 (centres undefined)
0% | O=C(COC(=O)c1ccccc1NS(=O)(=O)c1cccs1)NCC12CC3CC(CC(C3)C1)C2
-21% | Cc1nc2ccc(S(=O)(=O)NCC(=O)Nc3cccc(F)c3)cc2s1
-10% | COC(=O)c1ccc(NC(=O)c2cccc(NC(=O)c3ccccc3)c2)cc1
9% | CNC(=S)N(CCc1c(C)[nH]c2ccc(C)cc12)Cc1cc(OC)c(OC)c(OC)c1
2% | Cc1sc2ncn(CC(=O)NCCc3ccccc3)c(=O)c2c1C
13% | COC(=O)c1sc(S(=O)(=O)NCc2cccs2)c(C(=O)OC)c1C
-8% | CC(=O)Oc1ccc(/C(C)=N/N2CCN(Cc3ccc(C)cc3)CC2)cc1
20% | Cc1nnsc1S(=O)c1ccc(Br)cc1 (centres undefined)
10% | O=C(Nc1c(C(=O)N2CCN(c3ccccc3F)CC2)oc2ccccc12)c1ccco1

# Reformatted with each value named: entries from further up.
> O=C(COC(=O)c1ccccc1NS(=O)(=O)c1cccs1)NCC12CC3CC(CC(C3)C1)C2
  VDR inhibitor: 0%

> Cc1nc2ccc(S(=O)(=O)NCC(=O)Nc3cccc(F)c3)cc2s1
  VDR inhibitor: -21%

> COC(=O)c1ccc(NC(=O)c2cccc(NC(=O)c3ccccc3)c2)cc1
  VDR inhibitor: -10%

# The listing picks up with the three entries that preceded the break.
VDR inhibitor | Structure
-8% | CC(=O)Oc1ccc(/C(C)=N/N2CCN(Cc3ccc(C)cc3)CC2)cc1
20% | Cc1nnsc1S(=O)c1ccc(Br)cc1 (centres undefined)
10% | O=C(Nc1c(C(=O)N2CCN(c3ccccc3F)CC2)oc2ccccc12)c1ccco1
0% | O=C(NCCCO)C(=O)NCc1ccncc1
-9% | CCCSc1nc2c(c(=O)[nH]c(=O)n2C)n1Cc1ccccc1
-8% | CCc1nnc(NC(=O)CSc2nccn2-c2ccccc2)s1
3% | CCCc1nn2c(C)c(-c3ccccc3)nc2s1
-10% | O=C(O)CCn1cc(-c2ccc(F)cc2)nc1-c1ccncc1
-14% | NC(=O)N[C@@H](Cc1c[nH]c2ccccc12)C(=O)OCC(=O)N1CCCCC1
-7% | CCN(C)c1ccc(/C=N\n2nnnc2N)cc1
14% | Cc1ccc(-c2nc(NC(=O)CSc3nc(C)nc4sc5c(c34)CCCC5)ns2)cc1
0% | C/C(=N\n1c(C)nc2ccccc2c1=O)c1ccc(N)cc1
10% | Cc1ccsc1-c1nc(CN2CCCC2c2ccc(F)cc2)c(C)o1 (centres undefined)
-7% | Cc1c(CN(C)C(=O)c2sc3cc(Cl)ccc3c2Cl)cnn1C
1% | C=CCC(CC=C)(CNC(=O)C(=O)Nc1ccc(Br)cc1)c1ccc(OC)c(OC)c1
4% | O=C(O)C12CC3CC(C1)CC(n1ncc(NCc4ccco4)c(Cl)c1=O)(C3)C2
15% | Cc1nc(-c2nnc(-c3ccccc3)o2)c(C(F)(F)F)o1
-10% | O/N=C/c1cc(Br)ccc1OCc1cccc(F)c1
0% | CCCN(CC(=O)Nc1ccc(C(N)=O)cc1)CC(=O)Nc1ccc(Cl)cc1Cl
2% | CO[C@@]12[C@@H](COC(N)=O)C3=C(C(=O)C(C)=C(N)C3=O)N1C[C@@H]1N[C@@H]12
-9% | Cc1ccc(S(=O)(=O)N2CCC(C(=O)NCC(C)(C)N3CCOCC3)CC2)c(C)c1
-8% | Cc1nc(N)[nH]c(=O)c1CCCNc1ccc([N+](=O)[O-])cc1
3% | CCOc1ccc(NC(=S)NCCN2CCN(Cc3ccccc3)CC2)cc1
-4% | O=C(NCCNS(=O)(=O)c1ccccc1)N1CCOCC1
-19% | COC(=O)c1ccc(CN(c2ccc(C)cc2)S(=O)(=O)c2ccc3c(c2)OCCO3)o1
5% | CCOc1ccc(C(=O)Nc2ccc(C(=O)OCc3cc(=O)n4nc(CC)sc4n3)cc2)cc1
-5% | CCCN1C=CC(=C2C(=O)c3ccccc3C2=O)C=C1
-4% | O=C(Cc1ccccc1)N(Cc1cccnc1)c1nc2c(F)cc(F)cc2s1
-19% | O=C(CSc1nc2ccccc2o1)N1CCN(c2ccc(Cl)cc2)CC1
-17% | Cc1ccc(OCC(=O)O/N=C(\N)c2cccnc2)cc1
-2% | CS(=O)(=O)Nc1cccc(-c2cc(NCc3ccccc3)ncn2)c1
18% | CCc1noc(C)c1C(=O)N1CCCSC1=Nc1ccccc1Cl
-1% | Cc1cccc(-c2noc(CN(C(=O)C34CC5CC(CC(C5)C3)C4)C(C)C)n2)c1
-18% | C#CCOCCOCCOCCNc1nc(N2CCN(C(=O)C([C@@H](C)O)n3cc([C@@H](N)CCCCN)nn3)CC2)nc(N2CCN(C(=O)[C@H](CCCCN)n3cc(CN)nn3)CC2)n1 (some centres undefined)
6% | CCSc1nnc(NC(=O)[C@@H](NC(=O)c2cc(OC)cc(OC)c2)C(C)C)s1
-6% | COc1ccc(S(=O)(=O)N2CCCC(C(=O)NCCN3CCOCC3)C2)cc1C (centres undefined)
-4% | COc1ccc(NS(=O)(=O)c2cc(NC(=O)CCNC(C)=O)ccc2N2CCCCC2)cc1
5% | O=C1c2ccccc2NC(c2ccc(OCc3ccccc3)c(OCc3ccccc3)c2)N1Cc1ccco1 (centres undefined)
4% | Cc1cc(C)nc(SCc2n[nH]c(=S)n2C)n1
2% | COc1ccc(NC(=O)C2CCCN(S(=O)(=O)c3ccc(-n4cnnn4)cc3)C2)cc1 (centres undefined)
3% | Cc1ccc(SCCC(=O)NCCSCc2ccco2)cc1
-5% | COc1ccc2c(c1)CC/C2=N\OC(=O)c1ccccc1OC
2% | CC(=O)c1cn(Cc2ccccc2)c(=O)[nH]c1=O

# In another format: entries from further up.
Structure: O=C1c2ccccc2NC(c2ccc(OCc3ccccc3)c(OCc3ccccc3)c2)N1Cc1ccco1 (centres undefined)
  VDR inhibitor = 5%

Structure: Cc1cc(C)nc(SCc2n[nH]c(=S)n2C)n1
  VDR inhibitor = 4%

Structure: COc1ccc(NC(=O)C2CCCN(S(=O)(=O)c3ccc(-n4cnnn4)cc3)C2)cc1 (centres undefined)
  VDR inhibitor = 2%

Structure: Cc1ccc(SCCC(=O)NCCSCc2ccco2)cc1
  VDR inhibitor = 3%

# (continued)
VDR inhibitor | Structure
-10% | COc1ccc(NC(=O)CSc2nnc(CNC(=O)COc3ccc(Cl)cc3)o2)cc1
-11% | CCC(C(=O)Nc1nnc(-c2ccco2)s1)c1ccccc1 (centres undefined)
0% | COCCCNC(=O)c1ccc(CS(=O)(=O)c2ccccc2OC)o1
-13% | CC1(OC(=O)C2CCCC2)C(=O)C=C2C=C(c3ccsc3)N(C3CCCC3)C=C2C1=O (centres undefined)
-15% | COc1ccc(S(=O)(=O)N2CCC(C(=O)O)(c3ccccc3)CC2)cc1
-19% | C#CCOc1ccc(/C=C2/C(=O)NN(c3ccc(F)cc3)C2=O)cc1OC
8%&19% | O=C(NCCc1ccccc1)c1ccc(CS(=O)Cc2ccc(Cl)cc2)o1 (centres undefined)
-6% | CC(=O)c1ccc(S(=O)(=O)N(C)CCCC(=O)N(C)Cc2ccccc2F)cc1
12% | C=CC(=O)Nc1ccc(Nc2nc(NC3CCC(N(C)C)CC3)nc3c2ncn3C(C)C)cc1 (centres undefined)
5% | COC(=O)/C(C#N)=C1/C=Cc2ccccc2N1C
-20% | Cc1nn(-c2ccccc2)c2sc(C(=O)Nc3ccc(Br)cc3)cc12
-11% | COc1ccccc1CNC(=O)c1csc2c1CCCC2
5% | O=C(O)CSc1cccnc1Sc1ccc(Cl)cc1
5% | CCCC(=O)Nc1ccc2nc(SCC(=O)N3CCOCC3)sc2c1
-6% | O=C(NC(=S)Nc1ccc(CN2CCOCC2)cc1)c1ccc([N+](=O)[O-])cc1
7% | CCN1CCN(C(c2ccc(F)cc2)c2sc3nc(-c4ccco4)nn3c2O)CC1 (centres undefined)
-13% | CCc1ccc(OCC(=O)Nc2ccc(Cl)c(-c3nc4ncccc4o3)c2)cc1
2% | FC(F)Sc1ccc(NC(=S)NC2CCC(NC(=S)Nc3ccc(SC(F)F)cc3)CC2)cc1 (centres undefined)
-2% | Cc1cccc(-n2c(SCC(=O)N3CCCC3)nc3n[nH]c(C)c3c2=N)c1
15% | Cc1noc2ncnc(Oc3ccccc3Cl)c12
13% | O=C(CSc1nnc(NC(=O)c2c(F)cccc2F)s1)NC1CCCC1
1% | S=C(Nc1ccccc1Cl)N(Cc1ccccc1)Cc1cccnc1
-10% | C/C(=N/NS(=O)(=O)c1ccc(Br)cc1)c1ccc(C)o1
-17% | O=C(CSc1cc([N+](=O)[O-])cc(S(=O)(=O)Cc2ccccc2)c1)NC1CC1
2% | CN(O)/C=c1/ccc2c(n1)C(=O)C=CC=2
7% | COc1cc(/C=N/NC(=O)Cc2nnc(NC(=O)c3ccccc3)s2)ccc1O
-2% | COC(=O)c1sccc1NC(=S)N1CCN(c2ccccc2)CC1
7% | COc1ccc(OCC(=O)N2N=C(C)CC2(O)C(F)(F)F)cc1 (centres undefined)
-5% | Cc1ccc(Cl)cc1N1CCN(C(=O)c2cc3c(=O)n(C)c4ccccc4c3s2)CC1
-7% | CCCCn1c(=NC(=O)c2ccco2)c(C(=O)OCC)cc2c(=O)n3ccccc3nc21
u | O=C(CSc1ccc(-c2ccco2)nn1)Nc1ccccc1F
-10% | Cc1ccc(Cn2c(C(C)Nc3nc(-c4ccc(Cl)cc4)cs3)nc3cc(C(=O)NCCCO)ccc32)cc1 (centres undefined)
5% | CC1(C)CC2C1CCC1(C)OC1CCC2(C)O (centres undefined)
9% | COc1ccccc1/C=N/NC(=O)c1cccc(NC(=O)c2ccccc2Cl)c1
6% | Cc1ccc(S(=O)(=O)N2CCN(C(=O)COC(=O)COc3cccc4c3OC(C)(C)C4)CC2)cc1
15% | CN(C)c1ccnc(Oc2ccccc2)c1C#N
6% | COC(=O)Cc1c(C)c2ccc3c(c2oc1=O)CN(Cc1ccc(Cl)cc1)CO3
-10% | O=C(CC1C(=O)NCCN1C(=S)Nc1ccccc1)Nc1ccc(F)cc1 (centres undefined)
5% | CC1(c2cccc(Br)c2)NC(=O)N(CC(=O)Nc2ccc(F)cc2)C1=O (centres undefined)
-7% | CCCn1c(SCC(=O)N2CCCC2)nc2c1c(=O)n(C)c(=O)n2C
-9% | COc1ccc(Br)cc1CN1CCN(C(=O)c2cccc(F)c2)CC1
29% | Cc1ccc(CNc2nc3ccccc3s2)s1
-14% | COc1ccc(NC(=O)c2cc(S(=O)(=O)N3CCOCC3)cn2C)c(OC)c1
u | CCn1nc(C(=O)NCC2COc3ccccc3O2)c2ccccc2c1=O (centres undefined)
0% | CCc1ccc(-c2cc(C)no2)cc1S(=O)(=O)NCCCN1CCN(c2ccccc2)CC1
-13% | N#Cc1cnc2ncnn2c1-c1ccccc1
-10% | O=C(O)CSC1=NC(=Nc2cccc(Cl)c2)C2(CCCCC2)N1c1ccccc1
8% | Cc1cc(C(=O)NC2CC(C)(C)Cc3c2cnn3-c2ccc(F)cc2)no1 (centres undefined)
21% | Cn1cc(S(=O)(=O)CC(=O)Nc2ccc3c(c2)OCO3)c2ccccc21
4% | O=C(CN1CCCc2ccccc21)NCc1ccc2c(c1)OCO2
16% | Cc1ccc(O)c(N/C=C/C(=O)c2ccc(F)cc2)c1
7% | CCN(CC)C(=O)Cn1cc(SCC(=O)Nc2cc(OC)ccc2OC)c2ccccc21
1% | CCOC(=O)c1c(S(=O)(=O)N(C)Cc2ccco2)c(C)n(C)c1C
4% | CCCCC(CC)C(=O)Nc1ncc([N+](=O)[O-])s1 (centres undefined)
19% | CCOc1cccc2sc(N(CCCN(C)C)C(=O)c3ccc(S(=O)(=O)N(CC)Cc4ccccc4)cc3)nc12
-28% | Fc1ccc(F)c(C2=NNC(=NCC3CCCO3)SC2)c1 (centres undefined)
7% | CNC(=O)N(O)C1N(/N=C/c2ccccc2OC)C(=S)SC1(C)C (centres undefined)
-6% | O=C1N/C(=C\c2ccccc2)C(O)=C1C=NCc1ccccc1
-6% | COC(=O)Oc1ccc(/C=N/NC(=O)CSCc2ccc(Cl)cc2)cc1OC
-6% | COc1ccc(OC)c(CN(CCCN2CCOCC2)C(=O)Nc2ccccc2)c1

# Later entries:
VDR inhibitor | Structure
13% | O=C(Cc1ccccc1)NN=C1CCCC1
6% | c1cncc(-c2noc(-c3ccco3)n2)c1
11% | Cc1ccc(S(=O)(=O)N2CCCCC2)cc1C(=O)Nc1ccc(N2CCOCC2)cc1
-2% | CCn1c(C)c(/C=N/Nc2nc3ccccc3s2)c2ccccc21
-13% | O=C(c1ccc(S(=O)(=O)N2CCOCC2)cc1)N1CCN(c2ccccc2)CC1
14% | COc1ccc(CNC(=O)C(=O)NCC(c2cccs2)S(=O)(=O)c2ccc(C)cc2)cc1 (centres undefined)
-18% | C=CCn1c(=O)c(C(=O)Nc2ccccc2O)c(O)c2ccccc21

# Bioassay records from PubChem.

# Only part of the results is shown; count on the stated rates, not on these rows.
